# High-throughput results from PubChem.
# SARS PLP yeast: qHTS of Yeast-based Assay for SARS-CoV PLP; 330,000 compounds, 0.19% hits; Potency, µM (top dose mostly 32.9 µM), without a hit: at the top dose activity, positive = growth rescue; S. cerevisiae expressing SARS-CoV PLpro, growth rescue; control for the full effect not named in the record; also: 0% is about no effect; nearly all actives have a fitted effect of over 55% in size; growth read by luminescence after 48 h
# 2A StopGo: High Throughput Screening for Foot and Mouth Disease Virus Antivirals; human cells with a luciferase reporter of 2A StopGo recoding; control for the full effect not named in the record; Potency, µM (series often up to 57.9 µM), without a hit: at the top dose signal change, negative = less light; 410,000 compounds, 1.2% hits; AID 1159524, 2015; active = well fitted falling curve with a large enough effect; inconclusive = small, poorly fitted or top-dose-only effect; inactive = no such curve, though single readings can be large or run the other way; tested in HEK293T cells; also: % is scaled to controls: 0 for no effect and ±100 for the full control effect; nearly all actives have a fitted effect of over 45% in size; luciferase light after 4 h
# MARV entry inh: qHTS for inhibitors of binding or entry into cells for Marburg Virus; Marburg virus pseudotyped entry inhibition, cell reporter; control for the full effect not named in the record; about a third of the inactives were read at about 46 µM; Potency, µM (highest dose often 37.8 µM), without a hit: at the highest dose activity change, negative = inhibition, actives largely listed as inhibitors; 300,000 compounds, 1.8% hits; AID 540276, 2011; active = well fitted inhibition curve with a large enough effect; inconclusive = small, poorly fitted or top-dose-only effect, or effect the other way; inactive = flat fitted curve, though single readings scatter; tested in HEK293 cells; about a fifth of its hits are not listed in these tables; also: % is scaled to controls: 0 for no effect and ±100 for the full control effect; luciferase read-out
# Cruzain noTriton: qHTS Assay for Promiscuous and Specific Inhibitors of Cruzain (without detergent). purified cruzain, Z-FR-AMC fluorescence, no detergent. Potency, µM, inactives show max response, negative = inhibition, hits mostly inhibitors. 200,000 compounds, 2.3% hits. AID 1476, 2009; active = well fitted curve in the direction sought with a large enough effect; inconclusive = small, poorly fitted or top-dose-only effect, or another doubt; inactive = no such curve, though single readings can be large; an effect the other way counts as inactive or inconclusive;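 also: plate controls were enzyme without inhibitor for no effect and buffer without enzyme for full effect; nearly all actives have a fitted effect of over 40% in size; top concentration of the series not given in the record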
# Target sequence (P25779 123-467 limits assumed): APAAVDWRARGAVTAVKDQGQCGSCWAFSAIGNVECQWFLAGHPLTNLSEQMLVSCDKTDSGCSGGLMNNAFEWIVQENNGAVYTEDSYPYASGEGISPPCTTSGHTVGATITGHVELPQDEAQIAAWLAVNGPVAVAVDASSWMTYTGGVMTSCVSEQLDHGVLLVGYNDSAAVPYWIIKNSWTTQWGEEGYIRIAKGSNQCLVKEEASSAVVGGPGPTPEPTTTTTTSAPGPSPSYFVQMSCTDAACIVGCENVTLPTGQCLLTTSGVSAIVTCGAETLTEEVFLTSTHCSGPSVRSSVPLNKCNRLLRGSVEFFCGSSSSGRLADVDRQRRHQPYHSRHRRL
#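 Detergent-free condition (0.00005% Triton X-100) in acetate buffer pH 5.5 with DTT. 1.5 nM enzyme and compound were pre-mixed 15 min, then 2 uM Z-FR-AMC substrate added; reaction progress from fluorescence change between first and third reads (60 s).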
# RE007 growth inh: qHTS Assay for Inhibitors of the HIV-1 protein Vpr. S. pombe RE007 Vpr strain, BacTiter-Glo ATP luminescence, 24 h; control for the full effect not named in the record. Potency, µM (doses to about 92.2 µM), for the others: top-dose activity change, negative = less growth. 360,000 compounds, 0.21% hits. AID 651644, 2012; active = well fitted falling curve with a large enough effect; inconclusive = small, poorly fitted or top-dose-only effect; inactive = no such curve, though single readings can be large or run the other way;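 also: % is scaled to controls: 0 for no effect and ±100 for the full control effect; nearly all actives have a fitted effect of over 50% in size; the assay follows cell death caused by Vpr and the record does not say whether a fall means rescue or toxicity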
#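 Fission yeast strain RE007, carrying one chromosomally integrated HIV-1 vpr copy, was seeded at OD 0.01 in PMG+AL medium with 23 nL pinned compound. After 24 h at 30 °C and 99% humidity, viability was read by BacTiter-Glo luminescence.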
# Cruzain inh Det: qHTS Assay for Promiscuous and Specific Inhibitors of Cruzain (with detergent). Cruzipain (Trypanosoma cruzi), P25779. purified cruzain, Z-FR-AMC fluorescence, 0.01% Triton. Potency, µM, without a hit: max response, negative = inhibition, usual class: inhibitors. 200,000 compounds, 0.43% hits. AID 1478, 2009; active = well fitted curve in the direction sought with a large enough effect; inconclusive = small, poorly fitted or top-dose-only effect, or another doubt; inactive = no such curve, though single readings can be large; an effect the other way counts as inactive or inconclusive;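 also: plate controls were neutral wells for no effect and buffer without enzyme for full effect; nearly all actives have a fitted effect of over 40% in size; top concentration of the series not given in the record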
#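 Purified cruzain (1.5 nM final) was preincubated with compounds for 15 min at room temperature in 100 mM sodium acetate pH 5.5, 5 mM DTT, 0.01% Triton X-100. Reaction started with 2 uM Z-FR-AMC; AMC fluorescence change over 60 s gave activity.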
# Lassa entry inh: qHTS for Inhibitors of binding or entry into cells for Lassa Virus; Lassa virus pseudotype entry inhibition, cell reporter; control for the full effect not named in the record; Potency, µM (titrated, usually from 37.9 µM), for the others: top-dose activity change, negative = inhibition, hits mostly inhibitors; 300,000 compounds, 1.2% hits; active means well fitted inhibition curve with a large enough effect; inconclusive means small, poorly fitted or top-dose-only effect, or effect the other way; inactive means flat fitted curve, though single readings scatter; tested in HEK293 cells; also: % is scaled to controls: 0 for no effect and ±100 for the full control effect; nearly all actives have a fitted effect of over 50% in size; luciferase read-out
# NS1 function inh: qHTS Assay for Inhibitors of Influenza NS1 Protein Function; S. cerevisiae slowed by influenza A NS1, growth recovery by OD600; Potency, µM (titrated, usually from 46.1 µM), without a hit: at the highest dose activity, positive = more growth; 270,000 compounds, 0.4% hits; also: actives are rising curves; nearly all actives have a fitted effect of over 50% in size
#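 OD600 was taken as the measure of yeast growth restored by compound in an NS1-expressing S. cerevisiae strain. Cells had been washed out of glucose medium and diluted 1:100 into galactose -URA medium, pH 6.0.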
# The depositor's hits bear a star; ? = inconclusive; nt = not tested or not shown; & = joins results of further samples; [ ] = another dose, or the depositor's remark. Unless noted, calls follow the shape of the dose curve; as a rule, active means well fitted rising curve with a large enough effect; inconclusive means small, poorly fitted or top-dose-only effect; inactive means no such curve, though single readings can be large or run the other way. Potency is read from the fitted curve at half-maximal effect.
smiles | SARS PLP yeast | 2A StopGo | MARV entry inh | Cruzain noTriton | RE007 growth inh | Cruzain inh Det | Lassa entry inh | NS1 function inh
CCC1=NN(C(=O)COc2ccccc2)C(O)(c2ccc(Br)cc2)C1 (stereo not drawn) | -1% | 9% | 27%[46.1 µM] | nt | -9% | nt | 9%[46.1 µM] | -5%
Cc1cc(NC(=O)C2CCN(S(=O)(=O)c3ccc(Br)s3)CC2)ccc1Br | nt | ? | 1%[46.1 µM] | 11% | nt | -0.9% | -1%[46.1 µM] | nt
CC(=O)Nc1sc(C)c(C)c1C(=O)OCC(=O)NCc1ccccc1 | 1% | -13% | 14% | nt | 6% | nt | 11% | nt
Cn1c(=NC(=O)c2ccco2)sc2cccc(F)c21 | 4% | 30% | nt | ? | -6% | 7.2% | nt | -49%
Cc1c(C#N)c2ccccc2n1CC(=O)N1CCCc2ccccc21 | 2% | -9% | ? | -13% | 12% | -15% | -17% | -3%
COc1ccc(/C=N/NC(=O)c2cccc([N+](=O)[O-])c2)cc1OS(=O)(=O)c1ccccc1 | nt | ? | 6% | -22% | -5% | -0.7% | 5% | -6%
O=C1c2ccccc2C(=O)N1CC1c2ccccc2CCN1C(=O)C1CCCCC1 (stereo not drawn) | 4% | 11% | -12% | 4% | -12% | -1.9% | 2% | 1%
N#Cc1c(NC(=O)CSc2ncnc3c2cnn3-c2ccccc2Cl)sc2c1CCCC2 | 1% | -11% | ? | 3.2µM* | 10% | 3.3% | ? | 7%
CCCCN(C(=N)N1CCCCC1)c1nc(C)c([N+](=O)[O-])c(=O)[nH]1 | ? | -16% | 14% | -7% | 1% | -0.3% | -8% | 11%
O=C(Nc1nc2ccc(Cl)cc2s1)C1CCCO1 (stereo not drawn) | -3% | 8% | ? | -7% | -21% | -9.3% | ? | -15%
Cn1nnnc1SCC(=O)Nc1cc(C(C)(C)C)nn1-c1ccccc1 | -1% | 0% | 7%[46.1 µM] | -4% | -9% | -3.3% | 8% | -3%
Cc1cc(OC(=O)c2ccc(S(=O)(=O)N(C)C)cc2)cc(=O)o1 | 5% | -3% | 1% | ? | 2% | -4.5% | -2% | -2%
Cc1ccc(NS(=O)(=O)c2cc(-c3cnc(C4CC4)o3)ccc2C)cc1Cl | nt | 48% | nt | -30% | nt | -1.3% | ? | nt
Cc1ccccc1CN(C)C(C)C(=O)NCc1ccccc1 (stereo not drawn) | -4% | -14% | -14% | nt | 4% | nt | -4% | -2%
COCCn1c(C)cc(O)c(C(c2ccccc2)N2CCN(C)CC2)c1=O (stereo not drawn) | nt | 1% | nt | 14% | nt | -0.4% | -3%[46.1 µM] | nt
CCOC(=O)N1CCN(C(=O)C2CCN(Cc3ccc(O)c(OCC)c3)CC2)CC1 | 0% | -16% | -11%[46.1 µM] | nt | -7% | nt | -4%[46.1 µM] | 6%
COc1ccc2c(=O)cc(-c3ccccc3)n(C)c2c1 | 13% | 0% | -23%[46.1 µM] | -8% | -8% | -1.7% | 3% | -22%
O=C(O)C1=C[C@H](c2ccc(F)cc2)C[C@H](OCc2ccc(CO)cc2)O1 | -4% | 5% | nt | nt | -6% | nt | nt | 4%
Cc1c(C(C)C)c(=O)n(-c2ccc(S(=O)(=O)NC(C)C)cc2)n1C | 0% | ? | -35%[46.1 µM] | nt | 28% | nt | ? | 3%
O=c1cnn(Cc2ccc(F)cc2)c2ccccc12 | 0% | 3% | 13%[46.1 µM] | nt | 4% | nt | 5%[46.1 µM] | 2%
COc1ccc(S(=O)(=O)Nc2ccc(NC(C)=O)cc2)cc1Cl | 1% | -6% | ? | nt | 9% | nt | 1% | 4%
CCCCn1c(SCC(=O)Nc2nnc(C(C)C)s2)nc2c1c(=O)n(C)c(=O)n2C | -3% | -17% | -4%&-1% | ? | 19% | 1.3% | ? | -6%
CCOc1ccc(CCNC(=O)COC(=O)c2nn(C)c(=O)c3ccccc23)cc1OCC | 0% | 4% | 13%[46.1 µM] | nt | 0% | nt | -5% | nt
Cn1c(=O)[nH]c(=O)c2c1nc(CN1CCN(c3ccc(F)cc3)CC1)n2CCN1CCOCC1 | 2% | -5% | nt | nt | 4% | nt | nt | 28%&-4%
COc1ccc(-c2noc(C(=O)NCc3ccc(F)cc3)n2)cc1OC | -1% | 17% | ? | nt | 2% | nt | ? | nt
Cc1cc(NS(=O)(=O)c2ccc(NC(=S)NC(=O)c3cccc(S(=O)(=O)N(C)C)c3)cc2)no1 | -4% | 5% | 3%[46.1 µM] | nt | -10% | nt | ? | -5%
COc1ccc(C(=O)NCC(=O)OCC(=O)N2CCCc3ccccc32)cc1 | 9% | 3% | ? | 4% | -2% | -22% | -4% | -4%
CN1CCN(c2nc(-c3ccc(C(C)(C)C)cc3)nc3ccccc23)CC1 | 1% | ? | nt | nt | -9% | nt | nt | -2%
Cc1ccc(-c2ccc(=O)n(CC(=O)Nc3ccc(F)c(Cl)c3)n2)cc1C | nt | -23% | 6%[46.1 µM] | -3% | nt | -2.1% | -12%[46.1 µM] | nt
O=C(NCc1ccc(F)cc1)C1CCN(C(=O)c2cnn(-c3ccccc3)c2-n2cccc2)CC1 | nt | -15% | -7%[46.1 µM] | ? | nt | -3.8% | ? | nt

# Complete entries from above. Order of screens: SARS PLP yeast, 2A StopGo, MARV entry inh, Cruzain noTriton, RE007 growth inh, Cruzain inh Det, Lassa entry inh, NS1 function inh
# Cc1c(C#N)c2ccccc2n1CC(=O)N1CCCc2ccccc21 reads 2%, -9%, ?, -13%, 12%, -15%, -17%, -3%
# CCOC(=O)N1CCN(C(=O)C2CCN(Cc3ccc(O)c(OCC)c3)CC2)CC1 reads 0%, -16%, -11%[46.1 µM], nt, -7%, nt, -4%[46.1 µM], 6%
# CCCCn1c(SCC(=O)Nc2nnc(C(C)C)s2)nc2c1c(=O)n(C)c(=O)n2C reads -3%, -17%, -4%&-1%, ?, 19%, 1.3%, ?, -6%
# Cc1ccc(-c2ccc(=O)n(CC(=O)Nc3ccc(F)c(Cl)c3)n2)cc1C reads nt, -23%, 6%[46.1 µM], -3%, nt, -2.1%, -12%[46.1 µM], nt
# CCC1=NN(C(=O)COc2ccccc2)C(O)(c2ccc(Br)cc2)C1 (stereo not drawn) reads -1%, 9%, 27%[46.1 µM], nt, -9%, nt, 9%[46.1 µM], -5%

# Continuation.
smiles | SARS PLP yeast | 2A StopGo | MARV entry inh | Cruzain noTriton | RE007 growth inh | Cruzain inh Det | Lassa entry inh | NS1 function inh
CCOC(=O)c1cccc(NC(=O)COc2ccc([N+](=O)[O-])cc2)c1 | -8% | nt | -15% | -4% | 16% | -14% | 5% | -34%
O=C(NC1CCCC1)c1ncn[nH]1 | 9% | 1% | ? | 3% | -8% | -1.8% | 18% | -5%
O=c1c2ccccc2nnn1COc1ccc(F)cc1Cl | -2% | 46%[activator] | ? | nt | 25% | nt | 8% | -3%
O=C(NCCNc1ccc([N+](=O)[O-])cc1)c1cccs1 | 1% | -14% | -13% | nt | -5% | nt | 5% | 4%
c1ccc(-c2nn3c(Cn4nnc5ccccc54)nnc3s2)cc1 | 5% | nt | -5% | -15% | 3% | 0.3% | 0% | -32%
CCOc1cc(CO)cc(Br)c1OCC(=O)Nc1ccccc1C | 1% | -11% | nt | nt | 6% | nt | nt | -4%
CCCCCCCN1C/C=C\C(c2ccc(OC)cc2)N(Cc2ccc(F)cc2)C(=O)[C@H]1Cc1ccccc1 (stereo partly drawn) | 0% | -18% | nt | nt | -2% | nt | nt | ?
N#CCCN(C(=O)COC(=O)c1cccc(S(=O)(=O)Nc2ccc([N+](=O)[O-])cc2)c1)c1ccccc1 | -8% | 46%[activator] | ? | ? | -3% | -9.6% | -18% | ?
Cc1ccc(C)c(-c2csc(N)c2C(=O)OC(C)C)c1 | -17% | ? | ? | -6% | ? | 0.4% | -9% | 19%
Cc1cc(NC(=O)NC(C)(C(F)(F)F)C(F)(F)F)no1 | 1% | -8% | 17% | nt | -1% | nt | 5% | 3%
CCN(CC)CCOC(=O)c1ccc(NC(=O)c2cc3c(s2)-c2ccccc2OC3)cc1 | nt | -27% | ? | ? | nt | -29% | nt | nt
CCN(CC)C(=O)Oc1ccc(Cl)c2ccccc12 | 1% | nt | 2% | -1% | ? | -6.6% | 11% | -25%
CSCCC(NC(=O)c1ccccc1)C(=O)Nc1ccncc1 (stereo not drawn) | 6% | -16% | ? | nt | -1% | nt | 0% | nt
O=C(O)c1ccc2cccc(Cl)c2c1O | -1% | -15% | 0% | -4% | -4% | -2.2% | 16% | -76%
O=C(COC(=O)c1ccccc1Cl)NC(=O)NCc1ccccc1 | -25% | 24% | -1% | 3% | nt | -2.4% | 8.2µM* | 12%
CC(=O)c1ccc(N2CCN(C(=O)Nc3cccc(F)c3)CC2)cc1 | 1% | 0%&-24% | ? | -27% | 6% | -7.4% | ? | 0%
CCOCCCn1c(SCC(=O)N2CCOCC2)nc2ccccc2c1=O | -1% | -10% | -5%[46.1 µM] | nt | -16% | nt | 9%[46.1 µM] | 5%
Cc1cc(Oc2ccccc2)nc(N2CCOCC2)n1 | 7% | -5% | 0% | -8% | -13% | -4.9% | -5% | -5%
Cc1cc(=O)oc(C)c1C(=O)NCC(C)C | -5% | nt | 16%&16% | -9% | -3% | -1.5% | 11% | 4%
CCCn1c(SCC(=O)N2CCCCC2)nc2c1c(=O)n(C)c(=O)n2C | 2% | -11% | -11%[46.1 µM] | nt | 4% | nt | -20% | 8%
Cc1c([N+](=O)[O-])cc(C(=O)Nc2ccc(NC(=O)c3ccco3)cc2)cc1[N+](=O)[O-] | -1% | -8% | 10%[46.1 µM] | nt | 25% | nt | 15%[46.1 µM] | 6%
Cc1ccc(NCc2nnc3n2CCCCC3)cc1Cl | nt | 0% | nt | -2% | nt | 7.9% | -9%[46.1 µM] | nt
